Bioassay records as filed in PubChem.
TRPML1 agonist: qHTS for Agonists of the Human Mucolipin Transient Receptor Potential 1 (TRPML1) | TRPML1-expressing cells, Ca2+ dye fluorescence, FDSS; host cell line not named in the record; reference of the full effect not given here | Mucolipin-1 (Homo sapiens), Q9GZU1 | activation, % (no concentration beside the values) | 410,000 compounds, 0.12% hits; in the data active = activation above about 50%; inconclusive = about 30% to 50%; inactive = below about 30%; also: 0% is about no effect; the text of the record puts the active cut at 80%
Target sequence (Q9GZU1 whole entry, looked up): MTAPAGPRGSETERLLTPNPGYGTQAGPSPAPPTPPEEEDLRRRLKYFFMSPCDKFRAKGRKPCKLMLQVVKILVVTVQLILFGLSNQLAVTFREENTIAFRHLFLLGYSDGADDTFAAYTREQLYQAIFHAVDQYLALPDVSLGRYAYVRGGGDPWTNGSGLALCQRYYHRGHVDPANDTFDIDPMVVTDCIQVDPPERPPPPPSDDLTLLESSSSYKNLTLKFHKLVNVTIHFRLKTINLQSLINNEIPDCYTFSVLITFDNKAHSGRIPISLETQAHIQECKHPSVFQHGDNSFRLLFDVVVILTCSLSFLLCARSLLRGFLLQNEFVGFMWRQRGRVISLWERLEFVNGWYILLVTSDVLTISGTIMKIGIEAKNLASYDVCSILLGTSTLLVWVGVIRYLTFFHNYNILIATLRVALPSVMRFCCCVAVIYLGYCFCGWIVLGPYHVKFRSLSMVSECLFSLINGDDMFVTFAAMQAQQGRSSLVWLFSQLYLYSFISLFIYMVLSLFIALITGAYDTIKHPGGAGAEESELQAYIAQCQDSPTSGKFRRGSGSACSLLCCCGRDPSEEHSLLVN
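Calcium fluorescence on an FDSS kinetic reader gave the read-out. Tet-induced TRPML1-DL cells were plated overnight, dye-loaded (Ca8 with quencher, 45-90 min, room temperature, dark), then read 110 s after compound addition, and again 110 s after 4uM final 54-4 (EC80).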
PINK1 expr mod: A Quantitative High throughput Screen to Identify Chemical Modulators of PINK1 Expression. Potency, µM (titrated, usually from 76.6 µM), for inactives: at the top dose activation (PINK1 increase), usual class: activators. PINK1 immunofluorescence, high-content cytometry, 24 h. 410,000 compounds, 0.2% hits. AID 624263, 2012; active = well fitted activation curve with a large enough effect; inconclusive = small, poorly fitted or top-dose-only effect; inactive = flat fitted curve, though single readings scatter; cell line not stated here;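 also: potency is read from the fitted curve at half-maximal effect; % of control where 0% means no effect; nearly all actives have a fitted effect of over 65% in size; a mitochondrial uncoupler was the plate control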
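A stable cell line was treated with compounds at 5 concentrations for 24 hours, with CCCP as control. PINK1 levels and mitochondrial localization were measured by immunofluorescence with mitochondrial, cell and nuclear markers after fixation, read by laser-scanning cytometry.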
Sfp inh: qHTS Assay for Inhibitors of Bacillus subtilis Sfp phosphopantetheinyl transferase (PPTase) | 4'-phosphopantetheinyl transferase ffp (Bacillus subtilis), Q9F4F7 | Biochemical Sfp PPTase activity, qHTS | Potency, µM, inactives show max response, negative = inhibition, usual class: inhibitors | 310,000 compounds, 3.5% hits; active = well fitted inhibition curve with a large enough effect; inconclusive = small, poorly fitted or top-dose-only effect, or another doubt; inactive = no such curve, though single readings can be large or run the other way;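 also: the enzyme is Sfp with the accession as filed and its product quenches rhodamine fluorescence; potency is read from the fitted curve at half-maximal effect; 0% = enzyme reaction without inhibitor and -100% = no enzyme wells; top concentration of the series not given in the record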
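Sfp 15 nM + cpd, 15 min RT; start w/ rhodamine-CoA 5 uM, BHQ-2-YbbR 12.5 uM (final); 50 mM Hepes pH 7.6, 10 mM MgCl2, 0.01% NP-40, 0.01% BSA; read 525/598 nm at 0 and 30 min.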
ClpP mod: qHTS Assay for Activators of ClpP; Potency, µM (titrated, usually from 57.5 µM), without a hit: at the top dose activity change, negative = active; AID 651965, 2013; purified B. subtilis ClpP, FRET peptide cleavage, 20 min; 340,000 compounds, 1.9% hits; ATP-dependent Clp protease proteolytic subunit (Bacillus subtilis (strain 168)), P80244; active = well fitted falling curve with a large enough effect; inconclusive = small, poorly fitted or top-dose-only effect; inactive = no such curve, though single readings can be large or run the other way; also: potency is read from the fitted curve at half-maximal effect; the source files actives as falling curves though it sought activators and does not explain the sign; nearly all actives have a fitted effect of over 65% in size; many hits overshoot -100%
Target sequence (P80244 whole entry, looked up): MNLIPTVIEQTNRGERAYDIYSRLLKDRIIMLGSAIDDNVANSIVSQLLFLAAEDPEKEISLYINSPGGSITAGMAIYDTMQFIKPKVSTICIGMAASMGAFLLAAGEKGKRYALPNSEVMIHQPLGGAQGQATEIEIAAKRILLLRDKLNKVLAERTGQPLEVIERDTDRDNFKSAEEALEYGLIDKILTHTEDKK
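ClpP 10 microg/mL final, pH 8 Tris/KCl buffer with BSA, glycerol, Tween-20; compound pinned in; FRET-FV substrate; RT 20 min; Ex320/Em430; ΔFRET vs ADEP 5.8 microM, DMSO, no enzyme.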
TRPML1 inh: qHTS for Inhibitors of the Human Mucolipin Transient Receptor Potential 1 (TRPML1); TRPML1-inducible cells, Ca2+ dye fluorescence, FDSS; active compounds read low; inhibition of EC80 agonist-evoked calcium signal; activity change, negative = inhibition, % (no concentration beside the values); 390,000 compounds, 0.02% hits; AID 624415, 2012; in the data active means activity change below about -50%; inconclusive means about -30% to -50%; inactive means above about -30%;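 also: stimulus is agonist 54-4 at its EC80 concentration; % is scaled to controls: 0 for no effect and ±100 for the full control effect; compound concentration not given in the record; the text of the record puts the active cut at -80%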
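TRPML1-DL cells, Tet-induced overnight (~16 h, 37 °C) at 1,500 cells/well, were loaded with Ca8 no-wash dye plus quencher for 45-90 min at room temperature. Compounds were pinned during FDSS kinetic reading; agonist 54-4 at EC80 (4 uM final) then added.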
Menin-MLL FL inh: qHTS Assay for Inhibitors Targeting the Menin-MLL Interaction in MLL Related Leukemias: Competition With Fluorescein Labeled MLL-derived Peptide; FP activity change, % at 61.4 µM; 290,000 tested, under 10 active; Fluorescence polarization, fluorescein-MLL peptide displacement from menin; inconclusive = falling polarisation curve, or a change in total fluorescence; inactive = total fluorescence flat and polarisation flat or rising; no compound was filed as active; the % refers to the polarisation; negative = inhibition;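 also: % of control where 0% means no effect; inhibitors lower the polarisation; unlabelled MLL peptide was the positive control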
TRPV1 PAM: HTS Assay for Compounds that Act as Potentiators of the Vanilloid Receptor 1 | AID 540277, 2011 | 320,000 compounds, 0.02% hits | potentiation, % at 8.33 µM | TRPV1-expressing cells, Fluo-8 calcium influx, capsaicin EC20 potentiation; host cell line not named in the record; control for the full effect not named in the record; active means potentiation above 80%; inconclusive means 30% to 80%; inactive means below 30%; also: 0% is about no effect
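Cells expressing TRPV1 were dye-loaded with Fluo-8 and read kinetically: 10 s baseline, 3 min after compound (agonist portion), then 2 min after EC20 capsaicin (allosteric enhancer portion). Calcium-bound dye fluorescence at 480/520 nm.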
An asterisk follows results filed as active; ? = inconclusive; / = no result given; & = joins results of further samples; [ ] = remark or other dose. Hits appear at their usual frequency; 4.4% or so of the library scored in one or more.

1	COC(=O)[C@H](C)NC(=O)Nc1ccc(C)c(C)c1
2	COc1ccc(N2C(=O)Cc3c2nc(N)c(C#N)c3N)cc1
3	O=C(NCC1CCCO1)c1cccc(F)c1 (configuration not stated)
4	CCc1nn(CC(=O)N2CCN(c3cccc(C)c3C)CC2)c(=O)c2cc3sccc3n12
5	CCOc1ccccc1NC(=O)CN1C(=O)C2(SCC(=O)N2c2ccc(C)cc2)c2ccccc21 (configuration not stated)
6	COCCN(Cc1nnc(-c2cccs2)o1)C(=O)c1cccc(S(=O)(=O)N2CCOCC2)c1
compound no.	1	2	3	4	5	6
Menin-MLL FL inh	8.5	-3.5	3.1	/	/	/
ClpP mod	0.4%	/	-0.4%	0.4%	-0.6%	0.2%
TRPV1 PAM	22	-12	0	/	/	3
PINK1 expr mod	-2.0%	-1.2%	0.7%	1.3%	-2.6%	0.8%
TRPML1 inh	30	-14	13	-5	-18	13
Sfp inh	12%	10%	15%	/	/	/
TRPML1 agonist	0.7	0.9	1.1	0.0	3.4	-0.7

7	O=C1C(=O)N(CCCN2CCOCC2)C(c2ccc(Cl)cc2)/C1=C(/O)c1ccc(F)cc1 (configuration not stated)
8	O=[N+]([O-])c1cccnc1N1CCN(Cc2ccc3c(c2)OCO3)CC1
9	Cc1ccc(NC(=O)C[n+]2ccn(C3=C([O-])c4ccccc4C3=O)c2)cc1
10	C/C(Cc1ccccc1)=N\NC(=O)c1ccccn1
11	CC1(N2CCOCC2)C(=O)c2ccccc2C1=O
12	Brc1cccc(CNCc2ccncc2)c1
compound no.	7	8	9	10	11	12
Menin-MLL FL inh	3.2	6.8	-1.9	-2.4	2.9	0.5
ClpP mod	-1.1%	?	/	-0.4%	/	/
TRPV1 PAM	-13	14	6	-14	8	3
PINK1 expr mod	-1.0%	0.4%	-0.2%	-0.5%	18%	1.6%
TRPML1 inh	6	38	7	-1	-9	16
Sfp inh	6%	-16%	-5%	50µM*	5%	12%
TRPML1 agonist	0.1	-0.6	-0.2	0.1	-0.4	-0.9

Quoted at random: three entries already listed
12	Brc1cccc(CNCc2ccncc2)c1
8	O=[N+]([O-])c1cccnc1N1CCN(Cc2ccc3c(c2)OCO3)CC1
7	O=C1C(=O)N(CCCN2CCOCC2)C(c2ccc(Cl)cc2)/C1=C(/O)c1ccc(F)cc1 (configuration not stated)
compound no.	12	8	7
Menin-MLL FL inh	0.5	6.8	3.2
ClpP mod	/	?	-1.1%
TRPV1 PAM	3	14	-13
PINK1 expr mod	1.6%	0.4%	-1.0%
TRPML1 inh	16	38	6
Sfp inh	12%	-16%	6%
TRPML1 agonist	-0.9	-0.6	0.1

Further structures.
13	CC(=O)N1CCCc2cc(S(=O)(=O)N(CCN(C)C)Cc3ccccc3)ccc21
14	Cc1ccc(C2CCN(C(=S)NC(C)C)C2)cc1 (configuration not stated)
15	Cc1ccc(S(=O)(=O)N2CCN(S(=O)(=O)c3ccccc3)C2)cc1
16	Cc1cccc(NC(=S)NC2CCCC2)c1
17	C=CCn1c(SCC(=O)N2CC(=O)Nc3ccccc32)nc2scc(-c3ccccc3)c2c1=O
18	COc1ccc(/C(O)=C2/C(=O)C(=O)N(CCCN(C)C)C2c2ccccc2)cc1Cl (configuration not stated)
compound no.	13	14	15	16	17	18
Menin-MLL FL inh	/	-1.4	2.2	-0.1	21	3.2
ClpP mod	-2.6%	/	1.4%	-5.1%	0.5%	/
TRPV1 PAM	/	0	1	1	17	1
PINK1 expr mod	1.6%	0.7%	0.0%[38.3 µM]	-0.3%	2.9%	/
TRPML1 inh	-17	-7	1	14	10	/
Sfp inh	/	-2%	10%	4%	2%	-1%
TRPML1 agonist	0.5	-0.4	-0.7	4.6	-0.6	/

19	CC(=O)NS(=O)(=O)c1ccc(NC(=O)c2cccc3ccccc23)cc1
20	CC(CN1CCCC1)OC(=O)COc1ccccc1 (configuration not stated)
21	O=Cc1c(Nc2ccccc2Cl)nc2ccccn2c1=O
22	CCOC(=O)C(NC(=O)NCc1ccc(OC)cc1)(OCC)C(F)(F)F (configuration not stated)
23	CC(C)CC(=O)Nc1ccc(-c2cn3ccsc3n2)cc1
24	CCCCC(=O)Nc1ccc(C(=O)NNC(=S)NC(=O)c2cccs2)cc1
compound no.	19	20	21	22	23	24
Menin-MLL FL inh	/	2.6	4.5	4.0	-1.9	3.2
ClpP mod	/	-3.2%	2.0%	-6.9%	0.8%	-0.5%
TRPV1 PAM	/	-11	-32	-13	-8	5
PINK1 expr mod	-0.6%	-1.2%	0.3%	3.9%	1.4%	-1.1%
TRPML1 inh	11	-12	/	-20	0	-13
Sfp inh	/	13%	32µM*	-2%	8%	23%
TRPML1 agonist	0.6	-0.4	/	1.5	-0.4	0.2

Whole records, looked up by structure. Values in the order: Menin-MLL FL inh | ClpP mod | TRPV1 PAM | PINK1 expr mod | TRPML1 inh | Sfp inh | TRPML1 agonist
CC(=O)NS(=O)(=O)c1ccc(NC(=O)c2cccc3ccccc23)cc1 in the list: / | / | / | -0.6% | 11 | / | 0.6
CC(C)CC(=O)Nc1ccc(-c2cn3ccsc3n2)cc1 in the list: -1.9 | 0.8% | -8 | 1.4% | 0 | 8% | -0.4
CCCCC(=O)Nc1ccc(C(=O)NNC(=S)NC(=O)c2cccs2)cc1 in the list: 3.2 | -0.5% | 5 | -1.1% | -13 | 23% | 0.2
CCOC(=O)C(NC(=O)NCc1ccc(OC)cc1)(OCC)C(F)(F)F (configuration not stated) in the list: 4.0 | -6.9% | -13 | 3.9% | -20 | -2% | 1.5
O=Cc1c(Nc2ccccc2Cl)nc2ccccn2c1=O in the list: 4.5 | 2.0% | -32 | 0.3% | / | 32µM* | /

(cont.)
25	CC(C)[C@H](NC(=O)c1ccccc1)C(=O)OCC(=O)NCCc1ccc(F)cc1
26	COc1cc(/C=N/N2CCOCC2)ccc1OCc1ccccc1
27	O=C(CSc1nc2ccccc2n1CC(=O)N1CCOCC1)N1CCCC1
28	Cc1c(C(=O)Nc2ccccc2)sc2nc[nH]c(=O)c12
29	CN1C(=O)N(C)C(NC(=O)Nc2ccccc2)C1NC(=O)Nc1ccccc1 (configuration not stated)
30	COc1ccc2c(c1)CCc1c(C(=O)Nc3c(C)nn(Cc4c(Cl)cccc4Cl)c3C)noc1-2
compound no.	25	26	27	28	29	30
Menin-MLL FL inh	-3.1	-4.1	0.9	-0.2	2.2	/
ClpP mod	-2.3%	/	0.9%	-11%	-1.7%	-5.2%
TRPV1 PAM	-4	-10	30	7	-8	/
PINK1 expr mod	3.6%	5.2%	2.2%	-0.1%	0.2%	-2.1%
TRPML1 inh	4	7	-10	4	-7	2
Sfp inh	19%	9%	9%	14%	6%	/
TRPML1 agonist	0.7	1.0	0.0	1.7	-0.3	2.1

31	O=C1C(=C2CCc3ccccc32)Cc2ccccc21
32	CCc1ccc(N2CC(C(=O)Nc3ccc(S(=O)(=O)N4CCOCC4)cc3)CC2=O)cc1 (configuration not stated)
33	Cc1ccc(S(=O)(=O)CCC(=O)Nc2nc(-c3cccnc3)cs2)cc1
34	CCOc1ccccc1C1NC(=O)NC(C)=C1C(=O)OCc1ccco1 (configuration not stated)
35	CCOC(=O)c1nnn(CC(=O)NC(=O)Nc2cccc(CC)c2)c1C(=O)OCC
compound no.	31	32	33	34	35
Menin-MLL FL inh	/	/	1.7	-0.5	1.3
ClpP mod	/	-3.1%	-0.4%	-13%	-0.7%&-0.4%
TRPV1 PAM	/	-3	8	-11	?
PINK1 expr mod	1.5%	3.5%	21%	/	-0.2%&1.1%
TRPML1 inh	-4	-5	-3	12	35&14
Sfp inh	/	/	8%	-7%	7%
TRPML1 agonist	0.0	-0.6	-0.3	-0.1	1.6&-0.5
